PrP 5UTR inh: suppresses PrP 5' UTR mRNA reporter expression. inhibition, % (concentration not given with the values). 340,000 compounds, 0.35% hits. cell-based PrP 5' UTR mRNA reporter, plate reader;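 active means every replicate at 50% or more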;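 further: 0 = median of the neutral control wells; tested in H4 reporter cells; numbers are from one replicate; inactives centre near -14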
BJeLR lethal: kills HRASV12-expressing BJeLR cells | BJeLR (HRASV12) viability, CellTiter-Glo ATP luminescence, 48 h; reference of the scale not given here | 300,000 compounds, 0.17% hits | inhibition, % (concentration not given with the values);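 active means replicate mean above 50%; inconclusive means above 50% but judged a plate artefact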;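 further: 50 nL library stock added to about 25 µL; numbers are from one replicate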
Bead autofluor: counter-screen for toxin protease inhibitors: compound fluorescence | compound autofluorescence counterscreen, microsphere flow cytometry; stronger effect = higher value | fluorescence intensity (concentration not given with the values) | 360,000 compounds, 3.1% hits;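 active means at least 3 SD above the mean of all compounds, about 16000 in these data; inconclusive means too few beads counted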;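 further: 100 nL of 1 mM stock went into each well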
Sa ugtP lethal: growth inhibition of S. aureus ugtP deletion strain; S. aureus RN4220 ugtP deletion, OD600 growth, 16 h; some inactives read as strong as hits; growth inhibition, % (test concentration not listed); 330,000 compounds, 0.54% hits;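 active means z-score under -3 and OD600 up to 0.15 on both plates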;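 further: plate controls were untreated wells for no effect and antibiotic for full effect; wells of about 80 µL received 100 nL stock; the first replicate is given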
Mtb hypoxia inh: Mtb hypoxia fluorescent reporter inhibition; M. tuberculosis hypoxia-regulated fluorescent reporter, fluorescence; fluorescence inhibition, % (test concentration not listed); 300,000 compounds, 0.1% hits;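 active means 35 to 45% if threefold the growth effect, above 45% if 1.5-fold the growth effect; inactive means the rest, general growth blockers included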;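 further: wells of about 50 µL received 100 nL stock; 0% = vehicle wells and 100% = reference inhibitor wells; whole bacteria with a GFP reporter of the hypoxia response; strong numbers were not always called active; many hits fall short of the cut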
RN4220 kill: kills Staphylococcus aureus RN4220; S. aureus RN4220 growth, OD600, 16 h; inhibition, % (no concentration beside the values); 330,000 compounds, 0.33% hits;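 active means z-score of -3 or lower and OD600 up to 0.18 on both plates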;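 further: plate controls were untreated cells for no effect and reference antibiotic for full effect; stock transfer was 100 nL into about 80 µL; one replicate is shown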
Mtb hypoxia inh growth: recorded beside Mtb hypoxia inh, whose call it bears; growth inhibition, %; measured here: M. tuberculosis growth (absorbance);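 0% = vehicle and 100% = reference antibiotic; read after six days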
* hit, by the source's call. No enrichment for hits (roughly 4% active in at least one column).

How did COc1ccc(CCN2C(=O)CN=C2Nc2ccc(F)cc2)cc1OC do in these assays?
PrP 5UTR inh: -16; BJeLR lethal: -7; Bead autofluor: 3558; Sa ugtP lethal: -6; Mtb hypoxia inh: -2; RN4220 kill: -0.7; Mtb hypoxia inh growth: 8

How did CCCn1nc2ccccc2c1P(=N)(N1CCOCC1)N1CCOCC1 do in these assays?
PrP 5UTR inh: -54; BJeLR lethal: -5; Bead autofluor: 20501*; Sa ugtP lethal: 2; Mtb hypoxia inh: -2; RN4220 kill: 1.5; Mtb hypoxia inh growth: -2

How did COc1ccc(CNC(=S)Nc2cc(C)cc(C)c2)cc1 do in these assays?
PrP 5UTR inh: -22; BJeLR lethal: -3; Bead autofluor: 2949; Sa ugtP lethal: 10; RN4220 kill: -2.3

Results for Cc1ccc(-c2nc(CC(=O)Nc3cccc(S(=O)(=O)NC4=NCCC4)c3)cs2)cc1 ?
PrP 5UTR inh: -20; Bead autofluor: 3394; Sa ugtP lethal: -3; Mtb hypoxia inh: 8; RN4220 kill: 1.6; Mtb hypoxia inh growth: -4

How did O=C(NC1CC1)C1=C[C@H](c2ccc(C(F)(F)F)cc2)C[C@H](OCCCCO)O1 do in these assays?
PrP 5UTR inh: -2; BJeLR lethal: -5; Bead autofluor: 3119

Results for O=C(NC1CCCc2ccccc21)c1ccccc1OC(F)F (centres undefined) ?
PrP 5UTR inh: -8; BJeLR lethal: 0; Bead autofluor: 5093; Sa ugtP lethal: 2; Mtb hypoxia inh: -2; RN4220 kill: 15; Mtb hypoxia inh growth: 10

What do the screens show for `NC(=O)c1ccc(NC(=O)CCCc2nc(-c3ccccc3Cl)no2)cc1`?
PrP 5UTR inh: -25; BJeLR lethal: 0; Bead autofluor: inconclusive; Sa ugtP lethal: -5; Mtb hypoxia inh: -3; RN4220 kill: -2.8; Mtb hypoxia inh growth: -2

Results for CCCCNc1nc(N(C)c2ccccc2)nc(-n2ccnc2)n1 ?
PrP 5UTR inh: -25; BJeLR lethal: -10; Bead autofluor: 23497*; Sa ugtP lethal: -13; RN4220 kill: -4.8

Results for O=c1oc2ccc3ccccc3c2cc1-c1nnc(-c2cccs2)o1 ?
PrP 5UTR inh: -8; BJeLR lethal: 15; Bead autofluor: 8510

What do the screens show for `O=C(O)c1ccccc1SC1CC(=O)N(c2ccccc2)C1=O` (centres undefined)?
PrP 5UTR inh: -25; BJeLR lethal: -14; Bead autofluor: 2303; Sa ugtP lethal: 10; Mtb hypoxia inh: 10; RN4220 kill: 8.1; Mtb hypoxia inh growth: 0

What do the screens show for `CC(C)CC(NC(=O)c1cccc(Cl)c1)C(=O)O` (centres undefined)?
PrP 5UTR inh: 11; BJeLR lethal: -18; Bead autofluor: 4785; Sa ugtP lethal: 3; Mtb hypoxia inh: 8; RN4220 kill: 4.8; Mtb hypoxia inh growth: 1

What do the screens show for `CC(C)=CCC/C(C)=C/CNC(=O)C[C@H]1C[C@H](C(=O)N2CCOCC2)[C@@]2(C)c3[nH]c4ccc(Cl)cc4c3CCN2C1=O`?
PrP 5UTR inh: -13; Bead autofluor: 4170; Sa ugtP lethal: -13; Mtb hypoxia inh: 1; RN4220 kill: -2.6; Mtb hypoxia inh growth: 0

How did COCC(=O)NCc1nc2ccccc2n1Cc1ccccc1F do in these assays?
PrP 5UTR inh: -8; BJeLR lethal: -7; Bead autofluor: 3774; Sa ugtP lethal: -1; Mtb hypoxia inh: 15; RN4220 kill: 2.6; Mtb hypoxia inh growth: 16

How did CCn1c(=N)n(CC(O)c2cccs2)c2ccccc21 (centres undefined) do in these assays?
PrP 5UTR inh: -23; BJeLR lethal: 4; Bead autofluor: 2883; Sa ugtP lethal: -2; Mtb hypoxia inh: 3; RN4220 kill: 0.1; Mtb hypoxia inh growth: 10

How did COc1ccc(C=NNc2ncc(F)c(N3CCOCC3)n2)cc1OC do in these assays?
Sa ugtP lethal: 12; Mtb hypoxia inh: 12; RN4220 kill: 3.7; Mtb hypoxia inh growth: 0

What do the screens show for `CCOc1ccc(/C=C/C(=O)Nc2ccccc2C(F)(F)F)cc1`?
PrP 5UTR inh: -1; BJeLR lethal: 4; Bead autofluor: 2458; Sa ugtP lethal: 9; Mtb hypoxia inh: 1; RN4220 kill: 6.8; Mtb hypoxia inh growth: 2

Results for O=C(O)C1Oc2ccccc2C1c1ccccc1 (centres undefined) ?
PrP 5UTR inh: -21; Bead autofluor: 2873; Sa ugtP lethal: 7; Mtb hypoxia inh: 4; RN4220 kill: 5.4; Mtb hypoxia inh growth: 0

How did COc1ccc(/C=C(\NC(=O)c2ccccc2)C(=O)OCC2CCCN3CCCCC23)cc1OC (centres undefined) do in these assays?
PrP 5UTR inh: -71; BJeLR lethal: 3; Bead autofluor: 4289; Sa ugtP lethal: -5; Mtb hypoxia inh: 2; RN4220 kill: 5.3; Mtb hypoxia inh growth: 6

Results for COc1ccc(N(Cc2cc3cc(OC)ccc3[nH]c2=O)C(=O)C2CCCO2)cc1 (centres undefined) ?
PrP 5UTR inh: -18; BJeLR lethal: 0; Bead autofluor: 2842; Sa ugtP lethal: 5; RN4220 kill: 0.8

What do the screens show for `Cc1ccc(-c2nn(CC(=O)Nc3ccc4c(c3)nc3n4CCOC3)c(=O)c3ccccc23)cc1`?
PrP 5UTR inh: -9; BJeLR lethal: 7; Bead autofluor: 9388; Sa ugtP lethal: -12; Mtb hypoxia inh: -9; RN4220 kill: -1.2; Mtb hypoxia inh growth: -3

Results for CN(C)C(=O)CSc1ncccc1-c1nc2ccccc2[nH]1 ?
PrP 5UTR inh: -37; BJeLR lethal: -14; Bead autofluor: 3708; Sa ugtP lethal: 5; Mtb hypoxia inh: 10; RN4220 kill: -0.6; Mtb hypoxia inh growth: 4

What do the screens show for `COc1ccc(C2=NN(C(=O)CN3CCOCC3)C(c3nc4ccccc4[nH]3)C2)cc1` (centres undefined)?
PrP 5UTR inh: -87; BJeLR lethal: 7; Bead autofluor: 4344; Sa ugtP lethal: 7; Mtb hypoxia inh: -1; RN4220 kill: 4.6; Mtb hypoxia inh growth: 1

How did CNC(=S)N/N=C(\C)c1ccc2c(c1)OCO2 do in these assays?
PrP 5UTR inh: -23; BJeLR lethal: 10; Bead autofluor: 4331

Results for Cn1c(CNC(=O)c2ccco2)nnc1SCC(=O)Nc1cccc(Br)c1 ?
PrP 5UTR inh: -27; BJeLR lethal: -2; Sa ugtP lethal: -2; Mtb hypoxia inh: -1; RN4220 kill: -3.0; Mtb hypoxia inh growth: -7

What do the screens show for `CC(=O)c1ccc(NC(=S)NCCc2ccccn2)cc1`?
PrP 5UTR inh: -42; BJeLR lethal: -15; Bead autofluor: 2207; Sa ugtP lethal: 9; Mtb hypoxia inh: 2; RN4220 kill: 4.6; Mtb hypoxia inh growth: 12

How did CCOc1ccccc1CNC(=O)C1CCN(c2nn3c(=O)cc(C)nc3s2)CC1 do in these assays?
PrP 5UTR inh: -31; BJeLR lethal: -11; Bead autofluor: 6350; Sa ugtP lethal: -11; Mtb hypoxia inh: -8; RN4220 kill: -1.6; Mtb hypoxia inh growth: 1

Results for Cc1cccc2sc(N(CCCN(C)C)C(=O)c3ccco3)nc12 ?
PrP 5UTR inh: -6; BJeLR lethal: 4; Bead autofluor: 4675

How did CC(Nc1cccc2ccccc12)C(=O)N/N=C/c1ccc([N+](=O)[O-])cc1 (centres undefined) do in these assays?
PrP 5UTR inh: -18; BJeLR lethal: 3; Bead autofluor: 8096

How did CCc1ccc(NC(=O)c2ccc(S(=O)(=O)NCc3cccnc3)cc2)cc1 do in these assays?
PrP 5UTR inh: -8; BJeLR lethal: 3; Bead autofluor: 3068; Sa ugtP lethal: -3; Mtb hypoxia inh: 2; RN4220 kill: -0.7; Mtb hypoxia inh growth: -8

How did NC(=O)c1ccc(NC(=O)COC(=O)c2ccc3c(c2)OCO3)cc1 do in these assays?
PrP 5UTR inh: -26; Bead autofluor: 6026; Sa ugtP lethal: 5; Mtb hypoxia inh: 9; RN4220 kill: -0.6; Mtb hypoxia inh growth: 6

What do the screens show for `O=C(COC(=O)c1cc([N+](=O)[O-])ccc1N1CCOCC1)Nc1ccc(Cl)cn1`?
PrP 5UTR inh: -5; BJeLR lethal: 0; Bead autofluor: 5645; Sa ugtP lethal: 7; Mtb hypoxia inh: 6; RN4220 kill: -0.6; Mtb hypoxia inh growth: -3

What do the screens show for `COc1cc(NC(=O)CC2NCCNC2=O)cc(OC)c1` (centres undefined)?
PrP 5UTR inh: -8; BJeLR lethal: 20; Bead autofluor: 15108; Sa ugtP lethal: 15; Mtb hypoxia inh: 6; RN4220 kill: 6.5; Mtb hypoxia inh growth: -4

What do the screens show for `C=CCOc1ccc(CNc2ccc3[nH]c(=O)[nH]c3c2)cc1OCC`?
PrP 5UTR inh: -2; BJeLR lethal: -15; Bead autofluor: 4012; Sa ugtP lethal: -7; Mtb hypoxia inh: -10; RN4220 kill: 0.3; Mtb hypoxia inh growth: 9

What do the screens show for `O=Cc1ccc(C(=O)OCC(=O)NCc2ccco2)cc1`?
PrP 5UTR inh: -18; Bead autofluor: 4030; Sa ugtP lethal: 3; Mtb hypoxia inh: 17; RN4220 kill: 5.2; Mtb hypoxia inh growth: 8

What do the screens show for `CC12CCC(C(=O)N3CCc4ccccc43)(CC1=O)C2(C)C` (centres undefined)?
PrP 5UTR inh: -14; BJeLR lethal: 5; Bead autofluor: 4223; Sa ugtP lethal: -3; RN4220 kill: 2.7

Results for COc1ccc(-c2cc(=O)c3c(O)cc(O)cc3o2)cc1 ?
PrP 5UTR inh: -19; Bead autofluor: 5786; Sa ugtP lethal: -13; Mtb hypoxia inh: 4; RN4220 kill: 10; Mtb hypoxia inh growth: -3

Results for Cc1ccc(-n2c(-c3ccc([N+](=O)[O-])cc3)nc3ccccc3c2=O)cc1 ?
PrP 5UTR inh: 0; BJeLR lethal: -2; Bead autofluor: 3132; Sa ugtP lethal: 7; Mtb hypoxia inh: 2; RN4220 kill: 1.9; Mtb hypoxia inh growth: 6

How did CCOc1ccc(NC(=O)C(=O)NCc2ccncc2)cc1 do in these assays?
PrP 5UTR inh: -24; BJeLR lethal: 3; Bead autofluor: 4351; Sa ugtP lethal: 2; Mtb hypoxia inh: 9; RN4220 kill: -0.9; Mtb hypoxia inh growth: 0

Results for Cc1ccc(S(=O)(=O)NCC(=O)N2CCCC2C(=O)O)cc1 (centres undefined) ?
PrP 5UTR inh: -19; BJeLR lethal: -6; Bead autofluor: 3812; Sa ugtP lethal: 3; Mtb hypoxia inh: -5; RN4220 kill: 3.4; Mtb hypoxia inh growth: 6

How did COc1ccccc1NC(=O)CSc1nnc(Cc2cccn2C)n1-c1ccc(F)cc1 do in these assays?
PrP 5UTR inh: -4; BJeLR lethal: -6; Bead autofluor: 5648; Sa ugtP lethal: 3; RN4220 kill: 4.6

Results for O=C1C=C(c2ccc(-c3ccccc3)c(F)c2)CC(c2ccc(Cl)cc2)C1 (centres undefined) ?
Sa ugtP lethal: -3; Mtb hypoxia inh: -2; RN4220 kill: -7.3; Mtb hypoxia inh growth: 3

4 entries already listed, ordered by molecular weight, descending.
How did CCc1ccc(NC(=O)c2ccc(S(=O)(=O)NCc3cccnc3)cc2)cc1 do in these assays?
PrP 5UTR inh: -8; BJeLR lethal: 3; Bead autofluor: 3068; Sa ugtP lethal: -3; Mtb hypoxia inh: 2; RN4220 kill: -0.7; Mtb hypoxia inh growth: -8

Results for O=C1C=C(c2ccc(-c3ccccc3)c(F)c2)CC(c2ccc(Cl)cc2)C1 (centres undefined) ?
Sa ugtP lethal: -3; Mtb hypoxia inh: -2; RN4220 kill: -7.3; Mtb hypoxia inh growth: 3

What do the screens show for `CC(=O)c1ccc(NC(=S)NCCc2ccccn2)cc1`?
PrP 5UTR inh: -42; BJeLR lethal: -15; Bead autofluor: 2207; Sa ugtP lethal: 9; Mtb hypoxia inh: 2; RN4220 kill: 4.6; Mtb hypoxia inh growth: 12

Results for COc1ccc(-c2cc(=O)c3c(O)cc(O)cc3o2)cc1 ?
PrP 5UTR inh: -19; Bead autofluor: 5786; Sa ugtP lethal: -13; Mtb hypoxia inh: 4; RN4220 kill: 10; Mtb hypoxia inh growth: -3

Looked up one by one from above (2):
Results for CN(C)C(=O)CSc1ncccc1-c1nc2ccccc2[nH]1 ?
PrP 5UTR inh: -37; BJeLR lethal: -14; Bead autofluor: 3708; Sa ugtP lethal: 5; Mtb hypoxia inh: 10; RN4220 kill: -0.6; Mtb hypoxia inh growth: 4

What do the screens show for `C=CCOc1ccc(CNc2ccc3[nH]c(=O)[nH]c3c2)cc1OCC`?
PrP 5UTR inh: -2; BJeLR lethal: -15; Bead autofluor: 4012; Sa ugtP lethal: -7; Mtb hypoxia inh: -10; RN4220 kill: 0.3; Mtb hypoxia inh growth: 9
